Screens deposited in PubChem by several laboratories.
Mtb hypoxia inh – reduces hypoxia-regulated biosensor signal in M. tuberculosis | M. tuberculosis hypoxia-regulated fluorescent reporter, fluorescence | fluorescence inhibition, % (concentration not given with the values) | actives 0.1% (n = 300,000) | AID 1159583;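 active = 35 to 45% if threefold the growth effect, above 45% if 1.5-fold the growth effect; inactive = the rest, general growth blockers included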;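 note: wells of about 50 µL received 100 nL stock; 0% = vehicle wells and 100% = reference inhibitor wells; whole bacteria with a GFP reporter of the hypoxia response; strong numbers were not always called active; many hits fall short of the cut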
RN4220 kill – S. aureus RN4220 growth inhibition. OD600, 16 h. inhibition, % (concentration not given with the values). actives 0.33% (n = 330,000). AID 1259311;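 active = z-score of -3 or lower and OD600 up to 0.18 on both plates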;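 note: plate controls were untreated cells for no effect and reference antibiotic for full effect; stock transfer was 100 nL into about 80 µL; one replicate is shown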
BJeLR lethal – BJeLR cell viability loss. BJeLR (HRASV12) viability, CellTiter-Glo ATP luminescence, 48 h; reference of the scale not given here. inhibition, % (concentration not given with the values). actives 0.17% (n = 300,000);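 active = replicate mean above 50%; inconclusive = above 50% but judged a plate artefact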;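 note: 50 nL library stock added to about 25 µL; numbers are from one replicate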
Sa ugtP lethal – kills S. aureus RN4220 lacking UgtP | S. aureus RN4220 ugtP deletion, OD600 growth, 16 h; some inactives read as strong as hits | growth inhibition, % (concentration not given with the values) | actives 0.54% (n = 330,000) | AID 1259309;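 active = z-score under -3 and OD600 up to 0.15 on both plates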;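 note: plate controls were untreated wells for no effect and antibiotic for full effect; wells of about 80 µL received 100 nL stock; the first replicate is given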
PrP 5UTR inh – inhibition of PrP 5' UTR reporter expression. inhibition, % (no concentration beside the values). cell-based PrP 5' UTR mRNA reporter, plate reader. actives 0.35% (n = 340,000);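 active = every replicate at 50% or more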;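 note: 0 = median of the neutral control wells; tested in H4 reporter cells; numbers are from one replicate; inactives centre near -14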
Bead autofluor – flagged as autofluorescent in microsphere protease counterscreen | compound autofluorescence counterscreen, microsphere flow cytometry; hits give high values | AID 624483 | actives 3.1% (n = 360,000) | fluorescence intensity (no concentration beside the values);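 active = at least 3 SD above the mean of all compounds, about 16000 in these data; inconclusive = too few beads counted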;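 note: 100 nL of 1 mM stock went into each well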
Mtb hypoxia inh growth – also measured in Mtb hypoxia inh; calls as there; growth inhibition, %; measured here: M. tuberculosis growth (absorbance);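 0% = vehicle and 100% = reference antibiotic; read after six days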
Active calls of the source: *; ? = inconclusive; nt = no result given.

SMILES	Mtb hypoxia inh	Mtb hypoxia inh growth	RN4220 kill	BJeLR lethal	Sa ugtP lethal	PrP 5UTR inh	Bead autofluor
O=C(Nc1nc2ccccc2[nH]1)c1cccc(S(=O)(=O)N2CCOCC2)c1	1	6	5.6	-5	-4	-10	4254
CN(C)Cc1cc(CCNC(=O)c2ccc(Cl)cc2)ccc1O	nt	nt	0.6	-3	-5	-14	4297
CC1CC(=O)Nc2ccccc2N1C(=O)Nc1ccc(F)cc1F (centres undefined)	1	9	3.0	1	3	-38	4170
COc1ccc(OC)c(CN2CCN(C(=O)CCNC(=O)c3ccc(Br)cc3)CC2)c1	7	3	6.6	-6	14	-8	?
O=C(CN1C(=O)COc2ccccc21)N(Cc1cccnc1)Cc1ccccc1F	11	5	2.7	2	0	-44	11205
COC(=O)c1c(C)oc(C)c1S(=O)(=O)Nc1ccc(C(C)C)cc1	8	12	7.2	5	7	-9	nt
CC1CCCC(NC2CCCCNC2=O)C1 (centres undefined)	-5	1	1.4	-6	-3	-15	8172
Cc1cc(=O)n2nc(N3CCC(C(=O)NC(C)c4ccccc4)CC3)sc2n1 (centres undefined)	7	18	2.7	0	7	-17	7185
COc1cccc(/C=N/n2c(N)nc3ccccc32)c1OC	nt	nt	nt	-5	nt	-71	12296
Cc1cccc(C2Nc3ccccc3C(=O)N2NC(=O)c2ccc([N+](=O)[O-])cc2)n1 (centres undefined)	3	2	22	0	-6	-21	2027
O=C(CSc1nc2ccccc2c(=O)n1CCCN1CCOCC1)Nc1ccc(Br)cc1	12	-2	7.2	nt	-2	-10	3608
O=C1c2ccccc2C(=O)N1CCCn1c(=O)oc2ccccc21	1	-3	6.3	1	0	-23	8011
NC(=O)C(=Cc1ccccc1)NC(=O)C=Cc1ccccc1	7	6	4.3	nt	-2	nt	nt
O=C(c1ccc(F)cc1Cl)N1CCN(CCc2ccccc2)CC1	11	19	1.5	-10	3	3	3456
COc1ccc2[nH]c(=O)c(CN(C(=O)c3cccnc3)c3ccc(C)c(C)c3)cc2c1	12	0	7.6	5	-4	-54	4027
C=CCn1c(=N)n(CC(=O)c2ccccc2)c2ccccc21	6	3	2.9	5	9	-12	4072
COc1cccc(CNC(=O)CN2C(=O)COc3ccc(S(=O)(=O)N4CCCC4)cc32)c1	4	10	1.6	-1	2	-13	6382
COc1ccc(-c2csc(NC(=S)NC(=O)/C=C/c3ccco3)n2)cc1Br	nt	nt	nt	5	nt	18	3352
O=C(CSc1ccccn1)Nc1ccc2c(c1)OCO2	3	8	2.3	-2	4	nt	4615
COc1ccc(OCC(=O)NN=C/C=C/c2ccccc2)cc1	4	10	-0.3	nt	7	nt	nt

Continued; it opens with the 5 that closed the last part.
SMILES	Mtb hypoxia inh	Mtb hypoxia inh growth	RN4220 kill	BJeLR lethal	Sa ugtP lethal	PrP 5UTR inh	Bead autofluor
C=CCn1c(=N)n(CC(=O)c2ccccc2)c2ccccc21	6	3	2.9	5	9	-12	4072
COc1cccc(CNC(=O)CN2C(=O)COc3ccc(S(=O)(=O)N4CCCC4)cc32)c1	4	10	1.6	-1	2	-13	6382
COc1ccc(-c2csc(NC(=S)NC(=O)/C=C/c3ccco3)n2)cc1Br	nt	nt	nt	5	nt	18	3352
O=C(CSc1ccccn1)Nc1ccc2c(c1)OCO2	3	8	2.3	-2	4	nt	4615
COc1ccc(OCC(=O)NN=C/C=C/c2ccccc2)cc1	4	10	-0.3	nt	7	nt	nt
O=S(=O)(c1ccc2c(c1)OCCO2)N1CCNCC1	8	7	0.4	3	7	-25	6015
CCc1ccc(NC(=S)N(Cc2cccnc2)Cc2ccco2)cc1	6	1	-1.9	nt	-6	-3	3195
COc1ccc([N+](=O)[O-])cc1C(=O)Nc1ccc(OCC(=O)N2CCOCC2)cc1	6	-1	1.2	-24	2	-13	2461
O=C1CSC(c2ccc([N+](=O)[O-])cc2)N1c1ccccc1F (centres undefined)	12	7	2.0	-1	7	-31	3677
CCCCCCCC(=O)Oc1ccc(C(=O)Nc2cc(C)on2)cc1	-6	-4	0.5	-2	-1	-6	3215
CCC(C)[C@@H](C(=O)NCC1CCC(C(=O)O)CC1)n1nnc2ccccc2c1=O (some centres undefined)	7	2	3.7	5	-4	-49	2538
Cc1c(NC(=O)C(C)OC(=O)c2cccnc2Cl)c(=O)n(-c2ccccc2)n1C (centres undefined)	5	2	4.9	nt	6	-1	3533
O=C(NCc1ccc(F)cc1)NC(=O)c1ccc(Cl)cc1	9	0	2.0	-10	0	-39	4435
Cc1ccccc1C(=O)Nc1ccc(S(=O)(=O)N2CCCC2)cc1	6	2	4.0	-9	7	-8	3175
CCc1ccc(C(=O)COC(=O)C2CCN(c3ccc(C(F)(F)F)cn3)CC2)cc1	0	2	6.1	4	16	-23	?
Cc1sc2nc(C3CC3)nc(N3CCN(C(=O)c4ccc(Cl)cc4)CC3)c2c1C	-10	19	-8.9	0	24	8	5441
CNS(=O)(=O)/C=C/c1ccccc1	20	0	5.4	0	4	-20	7003
COCCn1cnnc1SCC(=O)Nc1cc(OC)c([N+](=O)[O-])cc1C	4	2	2.0	2	2	-13	3981
Cc1ccc2oc(=O)c3cc(C(=O)NCCCN4CC(C)CC(C)C4)sc3c2c1 (centres undefined)	11	14	-1.6	10	0	-6	5599
CCOC(=O)CSc1n[nH]c(NC(=O)c2ccccc2)n1	2	-1	2.6	0	12	-29	9925
CC(C)CCC(C)N=Cc1c(O)n(Cc2ccccc2)c(=O)c2ccccc12 (centres undefined)	nt	nt	-3.9	7	-22	-8	2898
O=[N+]([O-])c1ccc(N=Cc2ccc(Br)c([N+](=O)[O-])c2)cc1	17	0	4.6	-6	12	-49	2619
Cc1nc(N2CCC3(CC2)OCCO3)c2nnn(Cc3ccccc3F)c2n1	13	15	-1.2	-19	9	5	2733
COc1ccc(NC(=O)C(=O)c2cn(CC(=O)N3CCCC3)c3ccccc23)cc1	nt	nt	nt	34	nt	41	5387
O=C(Cc1cccs1)N=Nc1c(O)[nH]c2ccc(Br)cc12	2	-11	7.1	-5	3	-17	4869
CN1CCC(N(C)C(=O)c2ccc(Cl)c(S(=O)(=O)N3CCOCC3)c2)CC1	3	-6	0.2	nt	5	-19	5901
O=C(O)C1CCN(S(=O)(=O)c2cccc3cccnc23)CC1	15	3	-0.5	1	3	-9	5127
Clc1ccc(C[n+]2cc(-c3ccccc3)n3c2CCC3)cc1Cl	18	13	-1.2	3	-12	-20	2117
C=CCn1c(=NC(=O)c2ccco2)sc2cc(C(=O)OC)ccc21	7	7	4.6	3	3	-25	2215
O=C1CCCC2=C1C(c1ccncc1)n1c(nc3ccccc31)N2 (centres undefined)	16	16	0.6	-3	4	-21	4879
Cc1ccccc1C(=O)c1cccn1CC(=O)NC(C)c1ccc2c(c1)OCCO2 (centres undefined)	7	9	2.8	0	13	-30	4160
COc1cc(C2=NOC(C(=O)NCc3ccc(F)cc3)C2)cc(OC)c1OC (centres undefined)	1	1	2.7	23	9	-6	17938*
COC(=O)NC(=S)Nc1ccc(Oc2ccc(Cl)cc2Cl)c(Cl)c1	20	13	-11	-5	11	-10	nt
CCOC(=O)c1c(C)[nH]c(C(=O)N2CCN(CC)CC2)c1C	5	-2	-4.5	-3	-2	7	2998
CC1Oc2ccccc2N(CC(=O)NCc2ccccc2)C1=O (centres undefined)	-1	0	7.5	6	10	-13	3356
O=C(C1CCCN(c2ncnc3c2nc2n3CCCCC2)C1)N1CCN(c2cccc(Cl)c2)CC1 (centres undefined)	-4	7	-0.3	-2	-3	-19	nt
Cc1cc(N2C(=O)C3CC=CC(C)C3C2=O)no1 (centres undefined)	1	5	4.8	-9	1	-15	4501
COc1cccc(CCC(=O)Nc2cc3c(cc2C(=O)O)OCCCO3)c1OC	8	7	10	nt	8	-7	nt
O=C(c1ccco1)N1CCN(C23CC4CC(CC(C4)C2)C3)CC1	3	8	-0.7	0	5	-22	5784
O=C1C2C(C(=O)N1N=Cc1ccco1)C1C=CC2C12CC2 (centres undefined)	12	4	0.6	nt	6	nt	nt
O=C(CSc1ccc2c(c1)OCCO2)Nc1cccnc1Cl	-3	0	1.2	6	2	-16	4422
CCOC(=O)N1CCN(CC(O)COc2c(C)cccc2C)CC1 (centres undefined)	10	7	3.4	-2	5	6	2526
CSc1ccc(-c2nc(CSCC(=O)NCCCN3CCOCC3)c(C)o2)cc1	9	10	0.0	-9	-7	-21	3835
FC(F)(F)c1ccc(-c2csc(-c3ccno3)n2)cc1	11	7	11	-6	20	-80	5020
Cc1ccc(NC(=O)c2sc3nc(C)nc(N4CCN(c5ccccn5)CC4)c3c2C)c(C)c1	3	11	-0.2	10	15	-13	4357
CS(=O)(=O)c1ccc(C(=O)NCC2(N3CCCCC3)CCCCC2)cc1	6	14	2.2	-8	2	-21	2387
COC(=O)c1c(N)sc2c1CCN(c1ncc(C(F)(F)F)cc1Cl)C2	5	16	-5.5	0	33	-7	3864
Cn1c(=O)c(=O)n(C)c2cc(S(=O)(=O)Nc3ccc4c(c3)OCCO4)ccc21	7	14	2.9	7	2	13	22407*
O=C(NN=Cc1cccc(O)c1)NC1CCCCC1	5	6	8.7	nt	6	nt	nt
O=C(Nc1cc(Cl)ccc1-n1cncn1)c1cncc(Br)c1	-6	4	1.6	2	2	-9	5065
COC(=O)c1ccc(COc2ccccc2/C=N/NS(=O)(=O)c2ccc(C)cc2)cc1	nt	nt	nt	3	nt	-67	10715
O=C(Nc1nccs1)c1ccc(N2C(=O)[C@@H]3[C@H](C2=O)[C@H]2C=C[C@@H]3C2)cc1	4	4	2.9	0	7	nt	3413
CC(Oc1ccc(Cl)cc1)C(=O)/C=C/N(C)C (centres undefined)	4	12	4.3	-5	0	-24	8836
COC(=O)c1sccc1NC(=O)c1ccco1	19	12	6.2	5	-2	-1	4135
Cc1cnc(NC(=O)c2c(-c3ccccc3)noc2C)s1	-4	-2	7.1	4	-3	-11	5188
Cc1ccc(N=Nc2ccc(O)c(C=NNC(=O)c3ccc(N)cc3)c2)cc1C	7	-11	-0.3	nt	-1	nt	nt
Cc1occc1C(=O)NN=Cc1ccccn1	-17	1	-3.0	nt	-5	nt	nt
O=C(O)CCC(=NNc1ccc([N+](=O)[O-])cc1S(=O)(=O)N1CCOCC1)c1cccs1	12	1	3.5	nt	6	nt	nt
COc1ccc(C(=O)c2ccc(-c3ccc(OC)cc3)nc2)cc1	5	-12	3.0	12	8	-32	3647
COc1ccc(Cc2nnc(SCC(=O)Nc3cc(Cl)ccc3C)[nH]c2=O)cc1	-1	-7	6.8	5	4	-26	4315
CC(=O)Nc1cc(-c2nn(C)c(=O)c3ccccc23)ccc1N1CCOCC1	4	1	5.7	0	13	-8	3988

An excerpt of these results, as labelled records:
> O=C(O)CCC(=NNc1ccc([N+](=O)[O-])cc1S(=O)(=O)N1CCOCC1)c1cccs1
  Mtb hypoxia inh: 12 | Mtb hypoxia inh growth: 1 | RN4220 kill: 3.5 | BJeLR lethal: nt | Sa ugtP lethal: 6 | PrP 5UTR inh: nt | Bead autofluor: nt
> O=C(Nc1cc(Cl)ccc1-n1cncn1)c1cncc(Br)c1
  Mtb hypoxia inh: -6 | Mtb hypoxia inh growth: 4 | RN4220 kill: 1.6 | BJeLR lethal: 2 | Sa ugtP lethal: 2 | PrP 5UTR inh: -9 | Bead autofluor: 5065
> O=C(Nc1nccs1)c1ccc(N2C(=O)[C@@H]3[C@H](C2=O)[C@H]2C=C[C@@H]3C2)cc1
  Mtb hypoxia inh: 4 | Mtb hypoxia inh growth: 4 | RN4220 kill: 2.9 | BJeLR lethal: 0 | Sa ugtP lethal: 7 | PrP 5UTR inh: nt | Bead autofluor: 3413
> CC(=O)Nc1cc(-c2nn(C)c(=O)c3ccccc23)ccc1N1CCOCC1
  Mtb hypoxia inh: 4 | Mtb hypoxia inh growth: 1 | RN4220 kill: 5.7 | BJeLR lethal: 0 | Sa ugtP lethal: 13 | PrP 5UTR inh: -8 | Bead autofluor: 3988
